GALR2 agonist: GALR2 (human) receptor agonism; 0.48% of 140,000 active; GALR2-expressing cells, agonist activation read-out; activation, %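 (tested at 5 µM)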; AID 803;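 active = above mean plus 3 SD of all compounds, about 5% in these data, not always enough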;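 note: 0% = vehicle buffer wells and 100% = reference agonist at full effect; tested in CHO reporter cells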
INS promoter inh: TRM-6 insulin promoter activity inhibition; inhibition, % at 2 µM; 0.9% of 130,000 active; TRM-6 cells (human fetal islet line), insulin promoter-eGFP reporter, imaging; reporter expression induced with tamoxifen;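 active = inhibition above the mean plus 3 SD, with well images judged a real hit on visual review, cut at about 60% in these data, passing the limit was not always enough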
RGS16-Gao: modulates binding between human RGS16 and Galphao; AID 1441; binding response (% of control), % at 10 µM; bead-based flow cytometry RGS16-Galphao binding, fluorescence; actives lie on both sides; O15492+P09471; 0.38% of 220,000 active;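 active = below 25% or above 175%, edge rows of some plates excepted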;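 note: Galphao activated by GDP with aluminum fluoride before binding; 100% = wells without compound and 0% = beads without RGS; some results beyond the cut were filed as inactive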
HSV augment: increases HSV replication in cells; HSV replication augmentation in cells, fold increase; maximum fold increase; 0.005% of 220,000 active;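 active = peak rise of 1.5-fold or more in the series; tested in PC3 cells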;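 note: first round at 10 µM; read as green reporter fluorescence; hits show the peak of a series up to 25 µM; 1 = signal of infected wells without compound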
PKD1 kinase inh: blocks activity of human protein kinase D1; AID 797; PKD1 kinase fluorescence polarization assay; inhibition, %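 (about 10 µM by stock and volumes)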; 0.056% of 200,000 active;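 active = inhibition of 50% or more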;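 note: controls were vehicle for no effect and a reference inhibitor for full effect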
Target sequence (Q15139 whole entry, looked up): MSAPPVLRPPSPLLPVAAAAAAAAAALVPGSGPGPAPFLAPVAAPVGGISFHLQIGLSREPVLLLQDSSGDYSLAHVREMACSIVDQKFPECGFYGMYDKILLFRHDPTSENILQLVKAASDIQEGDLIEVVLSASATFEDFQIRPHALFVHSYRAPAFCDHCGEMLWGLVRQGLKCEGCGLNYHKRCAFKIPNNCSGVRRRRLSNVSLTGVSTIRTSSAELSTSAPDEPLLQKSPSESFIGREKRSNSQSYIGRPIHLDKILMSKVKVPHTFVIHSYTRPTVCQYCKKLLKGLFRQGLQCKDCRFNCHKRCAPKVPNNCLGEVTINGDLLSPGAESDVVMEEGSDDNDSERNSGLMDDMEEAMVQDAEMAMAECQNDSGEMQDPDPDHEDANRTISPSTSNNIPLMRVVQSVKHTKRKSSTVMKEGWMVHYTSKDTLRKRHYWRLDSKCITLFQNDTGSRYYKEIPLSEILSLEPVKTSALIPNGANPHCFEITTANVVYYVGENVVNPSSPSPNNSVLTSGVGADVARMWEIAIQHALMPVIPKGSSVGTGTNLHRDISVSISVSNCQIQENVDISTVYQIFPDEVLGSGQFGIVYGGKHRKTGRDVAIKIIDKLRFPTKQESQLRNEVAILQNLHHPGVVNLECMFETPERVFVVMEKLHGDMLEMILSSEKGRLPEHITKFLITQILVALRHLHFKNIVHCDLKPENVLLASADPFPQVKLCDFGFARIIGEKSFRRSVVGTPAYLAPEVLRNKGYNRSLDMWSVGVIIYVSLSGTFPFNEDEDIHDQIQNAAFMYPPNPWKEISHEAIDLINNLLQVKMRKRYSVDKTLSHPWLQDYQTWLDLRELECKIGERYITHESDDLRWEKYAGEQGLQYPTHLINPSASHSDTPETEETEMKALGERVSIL
INS promoter inh cell count: second read-out of INS promoter inh, no call of its own (marks repeat the call); normalized cell count, %; measured here: cell count, toxicity; reference of the scale not given here;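 cells exposed to compound for 48 h; stained nuclei by imaging scaled within each plate; lower means fewer cells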
HSV augment primary fold: also measured in HSV augment; calls as there; fold increase; compound at 10 µM; measured here: primary screen fold increase 10 uM; tested in PC3 cells;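 GFP signal in the first replicate; 1 = infected wells without compound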
Active calls of the source: *; i = inactive; . = no result given.

Every second line gives: RGS16-Gao, HSV augment, INS promoter inh cell count, PKD1 kinase inh, HSV augment primary fold, GALR2 agonist, INS promoter inh
> C=CCc1c(O)c(CC)cc2c(C)cc(=O)oc12
 : 90, i, ., ., 0.89, ., .
> Cc1sc2ncn3cnnc3c2c1C
 : 84, i, ., -4, 0.95, -1.2, .
> CC(=O)c1ccc2c(c1)OCCOCCOCCOCCOCCO2
 : 96, i, ., ., 0.97, ., .
> COC(=O)C1=C(N)Oc2cc(C)n(Cc3cccnc3)c(=O)c2C1c1ccc(OC)c(OC)c1 (stereo unspecified)
 : 97, ., ., -13, ., -1.2, .
> N#Cc1ccc(-c2csc(-c3ccno3)n2)cc1
 : 96, i, ., ., 1.2, ., .
> C/C(=N\NC(=O)CC1N=C(Cc2ccccc2)NNC1=O)c1ccc(Br)cc1 (stereo unspecified)
 : 102, i, ., ., 0.78, ., .
> O=C(CCc1ccccc1)N/N=C/c1cc(Br)ccc1O
 : 103, i, ., -2, 0.83, -1.5, .
> CS(=O)(=O)N(CCc1ccccc1)CC(=O)NCc1ccccc1
 : 98, i, 100, -7, 0.94, ., -64
> Cc1cccc(C(=O)NC(CC(=O)O)c2ccc(OC3CCCC3)cc2)c1[N+](=O)[O-] (stereo unspecified)
 : 100, i, 120, 3, 0.9, ., -10
> CC(=O)c1cccc(NC=C2C(=O)OC3(CCCCC3)OC2=O)c1
 : 103, i, 156, -9, 1.1, -1.1, -37
> CC(=O)N1CCN2C(=O)C1CCCC(=O)c1cc(C)ccc12 (stereo unspecified)
 : 118, i, 118, 7, 0.97, -1.5, 0
> Cc1ccc(C(=O)N/C(=C\c2cccs2)C(=O)NC2CCCCC2)cc1
 : 104, i, 77, -4, 0.87, -2.7, -400
> Clc1ccc(-c2nnc3sc(-c4ccccn4)nn23)cc1
 : 105, i, ., -5, 0.99, -2.5, .
> CCc1sc(C(=O)Nc2ccccc2N2CCOCC2)cc1C
 : 107, i, 132, -5, 0.95, ., 25
> OCCN1CCN(c2nc(NCc3ccco3)c3ccccc3n2)CC1
 : 118, i, 94, -7, 0.94, -0.9, -15
> CCN1C(=O)/C(=C/c2cccs2)SC1=Nc1ccc(OC)cc1
 : 103, i, ., 0, 0.86, -0.2, .
> Cc1cccc(N2C(=O)CS/C2=N\NC(=O)c2ccc(Br)cc2)c1C
 : 112, i, 130, 5, 0.86, -0.5, -28
> Cc1c(Cl)cccc1NC(=O)CCC(=O)NNC(=O)c1ccccc1
 : 103, i, 145, -2, 1.1, -1.6, 37
> O=S(=O)(NCC1CCCO1)c1cnc(Cl)c(Br)c1 (stereo unspecified)
 : 40, i, 29, 5, 1, -2.9, 33
> CCN(CC)C(=O)C(=O)Nc1ccc(OC)c(Cl)c1
 : 104, i, ., 1, 0.82, ., .
> O=C(NCc1ccccc1Cl)C1CCC(CNc2c(N3CCCCC3)c(=O)c2=O)CC1 (stereo unspecified)
 : 107, ., 112, -7, ., -0.8, -85
> Cc1ccc(N2C(=O)NC(NC(=O)C3CC3)(C(F)(F)F)C2=O)cc1 (stereo unspecified)
 : 105, i, 114, -17, 0.92, -0.1, 7
> Cc1csc(NC(=O)C2CCN(S(=O)(=O)c3cccs3)CC2)n1
 : 123, i, 41, -9, 1, ., 0
> CN(C(=O)COC(=O)c1c2c(nc3ccccc13)/C(=C/c1cccc([N+](=O)[O-])c1)CCC2)C1CCS(=O)(=O)C1 (stereo unspecified)
 : 109, i, 75, 10, 0.67, 1.9, -20
> COc1ccc(C(=O)Nc2cc(C)on2)cc1S(=O)(=O)N1CC(c2ccccc2)CC1=O (stereo unspecified)
 : 103, i, 120, -2, 0.82, ., 15
> CCS(=O)(=O)N1CCN(C(=O)c2ccccc2[N+](=O)[O-])CC1
 : 109, i, ., 12, 0.97, ., .
> Cc1ccc(S(=O)(=O)n2cnc3ccccc32)c(C)c1
 : 98, i, 138, -8, 0.87, -2.5, 17
> CCOc1ccc2nc(NC(=O)/C=C/c3ccc4c(c3)OCO4)sc2c1
 : 118, i, 151, -5, 1.1, 1.4, 13
> COc1ccc(N/C=C(\C#N)c2ccc(OCCCF)cc2)cc1
 : 101, i, ., -6, 1.1, -1.1, .
> COc1ccc(C2CC(c3ccc(Cl)c(Cl)c3)Nc3nc(N)nn32)cc1 (stereo unspecified)
 : 93, ., ., -3, ., ., .

Further compounds
Every second line gives: RGS16-Gao, HSV augment, INS promoter inh cell count, PKD1 kinase inh, HSV augment primary fold, GALR2 agonist, INS promoter inh
> CCc1nc(SCC(=O)Nc2cccc(C(F)(F)F)c2)c2c(=O)n(C)c(=O)n(C)c2n1
 : 122, i, ., -7, 0.93, 0.0, .
> O=[N+]([O-])c1cccc2c(N3CCOCC3)ccnc12
 : 104, i, ., -7, 0.93, ., .
> CC(C)CCN(C(=O)Nc1ccccc1)C(C)c1cccs1 (stereo unspecified)
 : 100, i, 171, -7, 1.1, -0.1, 11
> CCOC(=O)c1cnc(-n2nc(C)cc2C)nc1NNc1cc(-c2ccccc2)nc(C)n1
 : 102, i, 77, -1, 0.98, 0.2, -100
> COc1ccc(C(=O)NCCCCCC(=O)N/N=C/c2ccco2)cc1OC
 : 102, i, 90, 1, 0.95, -2.0, -14
> O=C1C2C3CC(C2C(=O)N1c1cccc(Cl)c1)[C@H](O)C3O (stereo partly specified)
 : 105, i, ., ., 0.98, ., .
> CCOC(=O)CNC(=O)C12CC3CC(CC(C3)C1)C2
 : 94, i, ., -3, 0.98, ., .
> Cc1ccc(S(=O)(=O)Nc2csc(C)c2C(=O)O)cc1
 : 109, i, ., ., 1.1, ., .
> COc1cccc(C(=O)C2=NN(C(C)=O)CC2c2ccco2)c1 (stereo unspecified)
 : 99, i, ., -10, 0.87, ., .
> O=C(CCCc1c[nH]c2ccccc12)N1CCCCCC1
 : 102, i, ., -2, 0.95, -1.8, .
> Cn1c(=O)c2c(ncn2CC(=O)Nc2nc(-c3ccccc3Cl)cs2)n(C)c1=O
 : 104, i, ., 4, 0.98, -0.6, .
> COc1ccc(CSc2nnnn2Cc2ccccc2)cc1OC
 : 113, i, ., -7, 0.85, -1.2, .
> CSc1nc(O)c(Nc2cccc(Cl)c2)c(=O)[nH]1
 : 97, i, ., ., 0.89, ., .
> CS(=O)(=O)N1CCN(c2ccccc2NC(=O)Cc2ccc(Cl)cc2)CC1
 : 103, i, 154, 4, 0.96, 0.2, 3
> Cn1c(SCC2CCCCC2)nnc1-c1ccncc1
 : 103, i, ., -12, 0.76, -1.6, .
> Nc1cc2nsnc2cc1Br
 : 80, i, ., 18, 0.85, -4.5, .
> O=C(Oc1cccnc1)c1cc2ccccc2oc1=O
 : 81, i, 154, -5, 0.91, -3.4, 38
> O=C(CSc1nc(O)cc(=O)n1-c1ccccc1)NCc1ccccc1
 : 102, i, 82, 0, 0.68, -1.6, -65
> O=C(C1=NN[C@@H]2C(=O)N(Cc3ccccc3)C(=O)[C@H]12)c1ccc([N+](=O)[O-])cc1
 : 103, i, ., ., 1.1, ., .
> CCOc1ccc(-n2c(SCc3ccc([N+](=O)[O-])cc3)nnc2-c2ccc(OC)cc2)cc1
 : 103, i, 113, -9, 1, -0.1, 67
> O=C1/C(=C\c2ccco2)SC(=S)N1c1ccccc1
 : 101, i, ., -5, 1.1, -0.5, .
> CC1(C)Cc2nc3sc4c(NCCO)ncnc4c3cc2CS1
 : 104, i, ., ., 0.96, ., .
> CC(C)c1nc2ccccn2c1NC1CCCCC1
 : 105, i, 103, -6, 0.95, -2.1, 17
> O=C(CN1C(=O)c2ccccc2C1=O)NCCc1c[nH]c2ccc(Cl)cc12
 : 109, i, 69, 0, 1.1, -0.1, -36
> CCN(CC)S(=O)(=O)c1ccc(N2CCCC2)c(NC(=O)c2ccc(OC)cc2OC)c1
 : 107, i, 109, 3, 0.97, ., 36
> CN(C)S(=O)(=O)Nc1cc(Cl)cc(Cl)c1
 : 109, i, 159, -3, 1.1, ., -25
> Cc1cccc(NC(=O)c2ccc(COc3ccc(Cl)cc3Cl)o2)n1
 : 100, i, 43, -3, 1, -1.2, 20
> CCn1ncc(Br)c1C(=O)Nc1ccccc1OC
 : 95, i, 106, 2, 0.91, ., -12
> Cc1ccc(NC(=O)N2CCC(NC(=O)c3ccccc3C)CC2)cc1
 : 82, i, 106, 3, 0.98, -1.7, 3
> Cc1cccc(N2CCN(C(=O)c3cc(S(=O)(=O)N(C)C)ccc3N3CCCC3)CC2)c1C
 : 103, i, 136, -5, 1.1, ., -22

Reformatted: entries from further up
canonical_smiles	RGS16-Gao	HSV augment	INS promoter inh cell count	PKD1 kinase inh	HSV augment primary fold	GALR2 agonist	INS promoter inh
CC(C)CCN(C(=O)Nc1ccccc1)C(C)c1cccs1 (stereo unspecified)	100	i	171	-7	1.1	-0.1	11
CCOC(=O)c1cnc(-n2nc(C)cc2C)nc1NNc1cc(-c2ccccc2)nc(C)n1	102	i	77	-1	0.98	0.2	-100
COc1ccc(C(=O)NCCCCCC(=O)N/N=C/c2ccco2)cc1OC	102	i	90	1	0.95	-2.0	-14

(further entries)
Every second line gives: RGS16-Gao, HSV augment, INS promoter inh cell count, PKD1 kinase inh, HSV augment primary fold, GALR2 agonist, INS promoter inh
> Cc1ccc(C(=O)N2CCN(S(=O)(=O)c3ccccc3)CC2)cc1
 : 100, i, 74, 4, 0.93, ., 64
> Cc1nnc(N2CCN(Cc3ccccc3)CC2)[nH]c1=O
 : 103, i, 126, -9, 1.1, -0.1, 21
> CN1C(=O)CC2(CC(=O)N(Cc3ccccc3)C2)C1=O (stereo unspecified)
 : 96, i, 108, -2, 1, -1.7, 53
> C[C@]1(C(=O)O)C=C[C@@H](Cc2ccccc2)N1C(=O)c1ccccc1
 : 103, i, 105, -3, 0.95, -1.0, -38
> CC(=NC1CCCCC1)C1=C(O)c2ccccc2C1=O
 : ., i, ., -6, 0.8, -2.2, .
> Cc1onc(-c2ccccc2)c1C(=O)Nc1c(C)n(C)n(-c2ccccc2)c1=O
 : 96, i, ., -11, 0.94, -0.4, .
> NC(=O)c1ccc[n+](CC(=O)c2ccc(Br)cc2)c1
 : 112, i, 139, -5, 0.89, ., -33
> O=C(Nc1ccccc1)c1ccc(-c2ccccc2C(F)(F)F)o1
 : 108, i, 82, 5, 0.96, -2.9, 24
> CCOC(=O)COc1cc(O)c2c(=O)cc(-c3ccccc3)oc2c1
 : 100, i, 38, -7, 1, ., -27
> c1cc2c(cc1Oc1nc(N3CCOCC3)nc(N3CCOCC3)n1)OCO2
 : 99, i, 126, 10, 1.1, 0.0, 60
> Cc1nc2ccccc2n1C(=O)N1CCOCC1
 : 103, ., 86, -2, ., -2.2, -21
> COc1cccc(C2CC(C(F)(F)F)n3nc(C(=O)Nc4c(C)n(C)n(-c5ccccc5)c4=O)cc3N2)c1 (stereo unspecified)
 : 98, i, ., -5, 0.83, ., .
> Cc1ccnc(SCc2cc(=O)c(OC(=O)c3ccccc3)co2)n1
 : 97, i, 47, -4, 1, ., -428
> Cc1ccc(CNC(=O)COC(=O)c2ccc(Cl)c(N)c2)cc1
 : 110, i, 119, 6, 1, -0.5, 13
> COC(=O)c1sc(C(C)(C)C)cc1CS(=O)(=O)c1ccccn1
 : 103, i, ., ., 1.1, ., .
> CCCC(=O)OCC(=O)Nc1cc(Cl)ccc1[N+](=O)[O-]
 : 99, i, 64, -10, 1, ., 0
> COc1ccc(NC(=O)CN2C(=O)c3ccccc3Sc3ccc(C(=O)N4CCOCC4)cc32)c(OC)c1
 : 101, i, 151, -3, 0.83, ., -57
> CN(C)C(=O)c1cc(Br)ccc1Cl
 : 103, i, 64, -2, 0.95, -1.8, 14
> O=C(c1cccs1)N1CCc2c([nH]c3ccccc23)C1c1ccccn1 (stereo unspecified)
 : 101, i, ., -5, 0.91, ., .
> NC(=O)C1CCN(c2ncc(C(F)(F)F)cc2Cl)CC1
 : 96, i, ., 6, 0.95, ., .
> O=C1SCCc2c1n(Cc1ccccc1)c1ccccc21
 : 100, i, 59, 5, 1, -2.0, -340
> C=CCn1c(O)c(C=Nc2ccc(Cc3ccncc3)cc2)c(=O)[nH]c1=S
 : 91, i, 55, -2, 1.2, -1.9, -7
> Cc1nnsc1C(=O)N/N=C/c1ccccc1Cl
 : 107, i, ., ., 1.3, ., .
> O=C(CSc1nnc2n1CCCCC2)Nc1ccc(N2CCOCC2)cc1
 : 95, i, ., ., 0.76, ., .
> Cc1ccn(-c2cccc(-n3ccc(C)n3)n2)n1
 : 91, i, 127, 7, 0.92, -0.7, -8
> CCn1c(SCC(N)=O)nnc1-c1cc2c(C)nn(-c3ccccc3)c2s1
 : 113, i, ., 6, 0.83, -2.9, .
> CCCC(=O)n1nc(-c2ccc(OC)cc2)nc1N
 : 105, i, 62, 1, 1, -0.3, -80
> CCCOc1ccc(/C=c2\sc3nc(-c4ccco4)nn3c2=O)cc1OCC
 : 34, ., 88, 4, ., -1.7, 50
> Cc1ccc(-n2c(O)c(C=Nc3cc(C)on3)c3ccccc3c2=O)c(C)c1
 : 82, i, ., -8, 0.92, -1.9, .
> CCc1nnc2n1N=C(c1ccc(OC)cc1)CS2
 : 99, i, 72, -12, 1, -0.9, 58
